# Screens: PubChem, National Center for Advancing Translational Sciences (NCATS)
# VACV mCherry inh: inhibitors of vaccinia virus infection (mCherry reporter signal). hit rate 0.63% among 310,000. Potency, µM (titrated, usually from 36.5 µM), without a hit: at the highest dose activity change, negative = inhibition, usual class: inhibitors. Vaccinia virus mCherry reporter infection, fluorescence; about a quarter of the inactives have no number; active = well fitted inhibition curve with a large enough effect; inconclusive = small, poorly fitted or top-dose-only effect; inactive = no such curve, though single readings can be large or run the other way; tested in A549 cells; further: nearly all actives have a fitted effect of over 35% in size; inactives centre near -10
# Vaccinia Venus: inhibitors of vaccinia virus (Venus reporter). Vaccinia virus Venus reporter expression, fluorescence. Potency, µM (titrated, usually from 36.5 µM), for inactives: at the highest dose activity change, negative = inhibition, most hits filed as inhibitors. hit rate 0.46% among 330,000; active means well fitted inhibition curve with a large enough effect; inconclusive means small, poorly fitted or top-dose-only effect; inactive means no such curve, though single readings can be large or run the other way; tested in A549 cells; further: nearly all actives have a fitted effect of over 30% in size; inactives centre near -10
# An asterisk follows results filed as active; i = inactive; ? = inconclusive; · = not tested or not shown; & = joins results of further samples; [ ] = dose if it differs, or a comment. On the % scale 0 is the no-effect control and ±100 the full control effect; potency means the concentration at half of the fitted maximal effect. An unsorted share of the library; about 0.86% have a hit in one of these screens.
# Order of results: VACV mCherry inh	Vaccinia Venus
- C=CCNC(=S)NNC(=O)C(CCCC)CC(O)COCC(C)C (stereo not given)
    i	-2%
- CCn1cc(C(=O)NC2CCCCC2)c(=O)c2ccc(C)nc21
    -12%	2%
- Cc1ccc(Oc2cc(NC(=O)CCCn3nc(C)c([N+](=O)[O-])c3C)cc([N+](=O)[O-])c2)cc1
    ?	?
- S=C(NCC1CCCO1)N1CCN(c2nc(-c3ccccc3)cs2)CC1 (stereo not given)
    ?	-13%
- COC(=O)c1ccc2nc(-c3ccc(F)cc3)c(Cc3ccsc3)n2c1
    -6%	-2%
- O=[N+]([O-])c1ccc(Cl)cc1Sc1cccc2cccnc12
    -19%	-9%
- Cc1cccc(C(=O)Nc2ccc(C(=O)N/N=C/c3cccnc3)cc2)c1
    -9%	12%
- Cc1ncoc1C(=O)NCC1=C(c2cccc3ccccc23)C[C@@H]2CC[C@H]1N2Cc1ccco1
    -5%	-14%
- CC(=O)c1ccc(NC(=O)C(C)N(C)CC(=O)Nc2cccc(F)c2)cc1 (stereo not given)
    -10%	2%
- CCCOC(=O)c1ccc(NC(=O)C2C3C=CC(O3)C2C(=O)O)cc1 (stereo not given)
    ·	-17%
- Cc1ccc(N(Cc2cc3cc(C)ccc3[nH]c2=O)C(=O)c2cccs2)cc1
    -7%	-5%
- O=C(O)C(c1ccccc1)C(O)C1CC=CCC1 (stereo not given)
    -9%	-13%
- CCC(=O)NC(=S)Nc1ccc(OC)cc1OC
    i	-28%
- CC(=O)c1ccc(NC(=O)CCn2cccn2)cc1
    -1%	-4%
- O=C(O)c1ccc(N/N=C/c2ccc(C(F)(F)F)cc2)cc1
    -9%	-13%
- CC1CN(c2cc(=O)n(Cc3ccc(F)cc3)c(=O)[nH]2)CC(C)O1 (stereo not given)
    -12%	13%
- Cc1cc(NC(=O)c2c(Cl)cnn2C)no1
    ·	0%
- COC(=O)[C@@]1(Sc2ccc(C)cc2)CC(=O)N(C(=O)/C=C/c2ccccc2)[C@@H]1c1ccccc1
    43%[activator]	3%
- O=C(CSC1=NS(=O)(=O)c2cc(Cl)ccc2N1)c1ccc(Cl)cc1
    -15%	-6%
- O=C(CC(c1ccccc1)c1cc(Br)ccc1O)NCCN1CCOCC1 (stereo not given)
    -24%	-15%
- N#Cc1cc2c(nc1SCC(=O)N1CCCCC1)CCCC2
    -12%	-1%
- O=c1cc(-c2ccccc2)cc(-c2ccccc2)n1CCO
    i	-10%
- Cc1cccc2c3nc4ccccc4nc3n(C)c12
    2%	7%
- CCOC(=O)C1(Cc2cccc(OC)c2)CCN(Cc2ccccc2)CC1
    -15%	-8%
- CC(C)=CCn1c2ccc(NC(=S)NC3CC3)cc2c(=O)n1C
    10%	3%
- CCOc1ccc(CCNC(=O)c2ccc(-n3c(C)cc4c3CCCC4)cc2)cc1OCC
    ?	?
- FC(F)(F)c1nc2nccnc2[nH]1
    -12%	-1%
- Oc1ccc(/C=N/Nc2nc(-c3ccc(Cl)cc3)cc(C(F)(F)F)n2)cc1
    11µM*	11µM*
- CC(C)Oc1ccc(CC2(CCc3ccncc3)C(=O)NC(=O)NC2=O)cc1
    i	-22%
- CC(=O)n1cc([C@@H]2C=C(C(=O)NCc3ccccc3)O[C@H](OCCCCO)C2)c2ccccc21
    ?	-18%
- Cc1ccc(C(=O)Nc2ccccc2-c2ccccc2)o1
    ·	-23%
- O=C(Nc1c(C(=O)O)[nH]c2ccc(F)cc12)c1cccc(C(F)(F)F)c1
    -3%	-1%
- Nc1cc(=O)[nH]c(=S)[nH]1
    -6%	-2%
- CC(CCc1ccccc1)NS(=O)(=O)c1ccccc1Cl (stereo not given)
    -3%	-10%
- CN(C)c1ccc(CNC(=O)CN2C(=O)C3CCCCN3c3ccc(C(=O)N4CCCC4)cc32)cc1 (stereo not given)
    -8%	-13%
- COc1ccc(N2CC(C(=O)Nc3ccccc3N3CCCC3)CC2=O)c(OC)c1 (stereo not given)
    ?	?
- Cc1[nH]c2c(F)cccc2c1CC(=O)NCCN1Cc2ccccc2OC(C)C1 (stereo not given)
    -11%	-12%
- O=P(O)(CCc1ccncc1)CN1CCCCC1
    1%	-13%
- O=C(Nc1ccc(F)cc1F)c1csc(-c2cccs2)n1
    -7%	-22%
- Cc1cc(C)n2c(NC3CCCC3)c(-c3cccnc3)nc2n1
    -9%	1%
- c1ccc2c(N3CCCCCC3)nc(CN3CCCCC3c3nccs3)nc2c1 (stereo not given)
    ?	-12%
- O=C(COC(=O)CNS(=O)(=O)c1ccc(Br)cc1Cl)Nc1ccc(N2CCOCC2)cc1
    -14%	-2%
- CCc1nc2ccc(C(=O)NCCCN(C)C)cn2c1N(C)CCCc1ccccc1
    16%	-3%
- Cc1ccc(NC(=O)N2CCN(c3nnc(C)c4c(C)n(-c5ccccc5)nc34)CC2)c(Cl)c1
    -8%	-6%
- CC(C)CCNC(=O)CSc1nc2ccccc2nc1Cc1ccc(Cl)cc1
    -8%	-15%
- NC(=O)c1c(NC(=O)CCCC(=O)O)sc2c1CCCCCC2
    -11%	0%
- CCC(C)(C)n1nnnc1C(c1ccc2ncccc2c1)N1CCN(c2nc3ccccc3s2)CC1 (stereo not given)
    ?	-25%
- COc1ccc(C2Nc3ccccc3C(=O)N2Cc2ccccc2)cc1CN1CCOCC1 (stereo not given)
    -19%	19%
- COc1ccc(S(=O)(=O)N(CC(=O)N2CCOCC2)Cc2ccccc2)cc1
    -12%	-9%
- N#Cc1c(N2CCCC2)nc(N)c2c(N)nc(N3CCCC3)cc12
    ?	?
- CCN(CC)C(=O)Cn1c(=O)n(Cc2ccc(C(=O)NCc3ccc(C)cc3)cc2)c(=O)c2ccccc21
    -3%	-5%
- Cc1c(C(=O)OCC(=O)N2CCCC2=O)oc2ccccc12
    -4%	-8%
- Cc1cc(C)n(-c2ncnc3sc4c(c23)CCCC4)n1
    i	-9%
- CCc1nnc(NC(=O)c2cccc(C(=O)Nc3nnc(CC)s3)n2)s1
    -19%	-16%
- Fc1ccc(-c2nnn3c2nc(NCc2ccccc2)c2ccccc23)cc1
    -13%&5%	-7%&13%
- CCN(CC)S(=O)(=O)c1ccc(N/N=C/c2cc(OC)ccc2O)nc1
    2µM*	?
- CCOC(=O)N(C)C[C@H]1OCc2cnnn2CCCC(=O)N([C@@H](C)CO)C[C@H]1C
    -10%	7%
- CC(=O)NC1C(Oc2ccc(C=O)cc2)OC(COC(C)=O)C(OC(C)=O)C1OC(C)=O (stereo not given)
    5%	1%
- COc1ccc2c(c1)O/C(=C\c1ccccc1C)C2=O
    i	-14%
- COc1ccc(/C=C/C(=O)c2ccc([N+](=O)[O-])o2)cc1OC
    ?	?

# (next part)
# Order of results: VACV mCherry inh	Vaccinia Venus
- CCOC(=O)C1CCCN(C(=O)CN2CCN(Cc3ccc(Cl)cc3)C2=O)C1 (stereo not given)
    ·	-12%
- O=c1[nH]c(O)c(C=NC2CCCCC2)c(=O)[nH]1
    -4%	5%
- Cc1cccc(NC(=O)CSc2nnc(Cn3cnc4ccccc43)o2)c1
    i	-11%
- COCCn1cc(C(=O)NCc2cccs2)c2c3ccccc3n(C)c2c1=O
    -2%	-13%
- CSc1ccc(/C=C(\NC(=O)c2ccc(C)cc2)C(=O)Nc2cccc(C)c2)cc1
    i	-13%
- CC(=O)c1cccc(NC(=O)CCNS(=O)(=O)c2cccc3nonc23)c1
    -18%	-9%
- COc1ccc(OC)c(Nc2nc(C)nc3c2oc2ccccc23)c1
    -1%	?
- Cc1cc(C)c(S(=O)(=O)c2ccccc2C(C)C)c(=O)[nH]1
    0%	6%
- Cc1ccc(Cn2ccc(=O)c(OCc3ccccc3)c2C)cc1
    -18%	-9%
- Cc1ccc(N(Cc2ccc(C(=O)NCC3CCCO3)cc2)S(C)(=O)=O)cc1C (stereo not given)
    i	-9%
- Cc1ccc(NC(=O)CN2C(=O)CN=C(c3ccccc3)c3ccccc32)cc1
    -7%	-6%
- Cc1cccc(-c2nc(NCCCN3CCOCC3)c3ccccc3n2)c1
    ·	-27%
- O=C(Nc1ccc2c(c1)OCO2)c1cc(-c2cccc(O)c2)on1
    -22%	3%
- COc1ccc(-c2noc(C3CCCN(C(=O)c4ccccc4)C3)n2)cc1 (stereo not given)
    -11%[7.34 µM]	-7%[7.34 µM]
- O=C(NNC(=O)c1ccc2ccccc2c1)c1cccc(Cl)c1
    i	-18%
- O=C(C1CCC(Cn2c(=O)[nH]c3ccccc3c2=O)CC1)N1CCN(c2ccccc2)CC1 (stereo not given)
    -19%	-19%
- COc1cc(C)nc(N2CCCC(C(=O)Nc3cccc(Cl)c3C)C2)n1 (stereo not given)
    -10%	3%
- Cc1cc(Nc2ccc(Br)cc2F)n2ncnc2n1
    -9%	-8%
- CCOC(=O)c1cc(NC(=O)c2ccc(Cl)cc2)c(=O)n2c1oc1ccc(Cl)cc12
    -12%	-3%
- CCCCN(CC)CCNC(=O)c1ccc2c(Cl)c3c(nc2c1)CCC3
    ?	-28%

# Given in CSV form: entries from further up.
molecule,VACV mCherry inh,Vaccinia Venus
O=c1[nH]c(O)c(C=NC2CCCCC2)c(=O)[nH]1,-4%,5%
Cc1cccc(NC(=O)CSc2nnc(Cn3cnc4ccccc43)o2)c1,i,-11%
COCCn1cc(C(=O)NCc2cccs2)c2c3ccccc3n(C)c2c1=O,-2%,-13%
CSc1ccc(/C=C(\NC(=O)c2ccc(C)cc2)C(=O)Nc2cccc(C)c2)cc1,i,-13%

# Next part.
# Order of results: VACV mCherry inh	Vaccinia Venus
- O=C(COC(=O)Cn1cnc2ccccc21)NCCCc1ccccc1
    -3%	-7%
- COc1cc2c(cc1/C=C1/NC(=O)N(c3ccccc3)C1=O)OCO2
    -9%	-10%
- O=c1c2ccccc2nc(-c2ccco2)n1/N=C/c1ccco1
    ·	5%
- CCOc1ccc(NC(=O)COC(=O)c2ccc3c(c2)C(=O)N(CCc2ccccc2)C3=O)cc1
    i	-2%
- CN(C)CCCN(C(=O)c1ccc2c(c1)CCCC2)c1nc2ccc(F)cc2s1
    ?	?
- CCCCn1c(N)c(N(CCC(C)C)C(=O)C2CCN(C(=O)c3ccccc3C)CC2)c(=O)[nH]c1=O
    -3%	-14%
- COc1ccc2oc(-c3ccccc3)c(C(=O)N3CCOCC3)c2c1
    ·	-19%
- Cc1ccc(NC(=C(C#N)C#N)c2ccccc2)cc1
    i	-15%
- CCCNC(=O)c1cc(C2CCCCN2C(=O)c2ccc(C(C)C)cc2)on1 (stereo not given)
    -13%	-16%
- COc1ccccc1NC(=O)CN1C(=O)NC2(CCCCCCC2)C1=O
    -17%	-3%
- Cc1nn(-c2ccccc2)nc1CNC(=O)C1CC1
    -4%	-4%
- CCOC(=O)N1CCN(C(=O)C2CC(=O)N(c3ccc(OC)cc3)C2c2ccc(OC)cc2)CC1 (stereo not given)
    -7%	-11%
- O=C(Nc1ccncc1)C1(c2ccccc2)CCCC1
    i	-4%
- Cc1cccc(NC(=O)COc2coc(CN3CCN(c4ccccc4)CC3)cc2=O)c1C
    i	-11%
- COc1cccc(N(CC(=O)Nc2cccc(F)c2)S(C)(=O)=O)c1
    -14%[1.46 µM]	-14%
- CCOc1cccc(-c2c(C(=O)N/N=C(\C)c3ccncc3)nnn2-c2nonc2N)c1
    -29%	-7%
- CCCN1C(=O)c2cc(C(=O)Nc3ccccc3C)ccc2C1Nc1ccccc1C (stereo not given)
    -26%	-23%
- CCN(CC)c1ccc(C2C(C(=O)OCCOC)=C(C)NC3=C2C(=O)CC(C)(C)C3)cc1 (stereo not given)
    ·	-18%
- COc1cc2cnc(-c3ccccc3)cc2cc1OC
    i	-24%
- CCCCn1nnnc1SCC(=O)N(CC)CC
    0%	-12%
- C=C1CCN([C@@H](Cc2ccccc2)C(=O)NCCCc2ccccc2)S(=O)(=O)c2ccccc21
    -8%	-25%
- Cc1cc2c(cc1C)-n1nnnc1C(N1CCN(c3ccccc3F)CC1)C(=O)N2 (stereo not given)
    ?	-20%
- COc1ccc(C(C)n2c(C)c3c(C)nnc(C)c3c2C)cc1 (stereo not given)
    ?	?
- C[C@H](CO)N1C[C@H](C)[C@@H](CN(C)CC2CCCCC2)Oc2c(NS(=O)(=O)c3cccs3)cccc2C1=O
    -14%	-5%
- Cc1ccc2nc(/C(C#N)=C\c3ccc(OC(=O)c4cccs4)cc3)[nH]c2c1
    ?	?
- COc1cc2ccccc2cc1C(=O)N1CCOCC1
    -2%	-10%
- Cc1ccc(C(=O)Nc2sc(Cc3ccc4c(c3)OCO4)c(C)c2C(N)=O)cc1
    ?	-24%
- CCCCn1c(N)c(N(CCOC)C(=O)c2ccc(C)c(S(=O)(=O)N3CCCCC3)c2)c(=O)[nH]c1=O
    -14%	2%
- CC(=O)NCCNc1nc2cc(-c3ccsc3)sc2c(=O)n1C
    i	-18%
- CCCCn1c(N)c(Sc2ccccc2[N+](=O)[O-])c(=O)[nH]c1=O
    -4%	10%
- Cc1cn([C@H]2C[C@H](O)[C@@H](CNC(=O)[C@H](N)Cc3cscn3)O2)c(=O)[nH]c1=O
    -13%	-11%
- CCc1nc2c(OCc3ccccc3)cccn2c1N(C)C(=O)Nc1ccccc1OC
    -6%	-6%
- Cc1ccc(-c2c[n+](CC(=O)Nc3ccccc3)c3n2CCC3)cc1
    -8%	-17%
- COc1ccc(S(=O)(=O)N2CCCC(C(=O)NCc3cccnc3)C2)cc1OC (stereo not given)
    -5%	-6%
